Screening data from PubChem.
YopH PTP inh: inhibitors of Yersinia enterocolitica YopH tyrosine phosphatase; 0.16% of 140,000 active; inhibition, %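 (about 10 µM by stock and volumes)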; fluorescence Ex485/Em525;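 active = inhibition of 50% or more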;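 also: controls were vehicle for no effect and minimum signal wells for full effect; inactives centre near -20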
RecA splice inh: blocks M. tuberculosis RecA intein splicing; P9WHJ3; cell-free RecA intein splicing, fluorescence; inhibition, %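 (about 9 µM by stock and volumes)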; 0.75% of 290,000 active; AID 2221; in the data active = inhibition above about 30%; inconclusive = no clear call, values can overlap the other calls;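 also: 0% = vehicle wells and 100% = reference inhibitor control wells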
Target sequence (P9WHJ3 whole entry, looked up, canonical isoform): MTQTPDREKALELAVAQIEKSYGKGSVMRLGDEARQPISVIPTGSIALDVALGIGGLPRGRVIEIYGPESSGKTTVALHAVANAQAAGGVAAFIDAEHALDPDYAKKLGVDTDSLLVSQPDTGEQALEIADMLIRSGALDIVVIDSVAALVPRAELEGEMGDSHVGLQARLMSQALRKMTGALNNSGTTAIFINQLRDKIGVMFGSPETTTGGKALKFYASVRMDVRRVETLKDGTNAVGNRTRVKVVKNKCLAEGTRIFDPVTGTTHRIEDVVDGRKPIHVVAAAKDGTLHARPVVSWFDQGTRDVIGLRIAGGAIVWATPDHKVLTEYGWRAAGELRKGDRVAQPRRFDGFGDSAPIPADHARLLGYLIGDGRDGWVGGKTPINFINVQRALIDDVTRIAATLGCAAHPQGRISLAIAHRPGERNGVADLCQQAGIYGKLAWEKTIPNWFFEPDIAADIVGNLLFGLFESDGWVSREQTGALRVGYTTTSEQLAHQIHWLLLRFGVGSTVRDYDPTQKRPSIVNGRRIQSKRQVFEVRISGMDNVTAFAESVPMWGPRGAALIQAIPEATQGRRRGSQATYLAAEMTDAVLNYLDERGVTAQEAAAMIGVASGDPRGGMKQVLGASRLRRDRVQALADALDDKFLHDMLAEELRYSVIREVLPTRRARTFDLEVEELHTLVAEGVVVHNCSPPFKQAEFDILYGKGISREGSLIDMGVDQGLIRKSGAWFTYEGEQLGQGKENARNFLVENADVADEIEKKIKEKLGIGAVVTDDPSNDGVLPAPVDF
Mtb betalactam: beta-lactam sensitization of Mtb H37Rv. inhibition, % at 25 µM. 0.27% of 330,000 active. M. tuberculosis H37Rv growth with meropenem, percent inhibition; hits of this screen are not shown here;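 active = about 74% or more and at least 40 points above the plate without the antibiotic, then above 30% in a dose series; inconclusive = first-round hits that could not be retested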;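 also: growth measured after seven days incubation then overnight dye step; 0% = bacteria only wells and 100% = bacteria with antibiotic; twin plates without the antibiotic show which effects depend on it; some results filed as inactive read as strong as hits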
Arbovirus inh: antivirals against arbovirus infection | inhibition, % at 10 µM | arbovirus infection cell-based antiviral screen | 0.37% of 200,000 active;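 active = inhibition from about 30%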;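 also: bluetongue infection of BSR cells; cell survival read as ATP light after 72 h; 0% = infected wells without compound and 100% = uninfected wells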
Mtb H37Rv: M. tuberculosis H37Rv growth inhibitors, H37Rv strain (AID 1626). inhibition, % at 10 µM; hits with a dose series show IC50 in µM. M. tuberculosis H37Rv growth inhibition; higher % means a stronger effect. 0.95% of 220,000 active;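 active = confirmed in a dose series; inconclusive = inhibition above 80% but not taken into the dose series; inactive = below 80% or under 30% at every dose of the series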;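 also: bacteria incubated seven days before Alamar blue readout; 0% = bacteria only wells and 100% = bacteria with antibiotic wells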
Arbovirus inh repeat: recorded beside Arbovirus inh, whose call it bears; inhibition, %; measured here: 10K subset replicate screen; many hits read low in the repeat;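 first of two repeat runs on a subset; 0% = infected and 100% = uninfected wells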
Numbers without * were called inactive; ? = inconclusive; · = no result given. This is a subset; count on the stated rates, not on these rows.

SMILES	YopH PTP inh	RecA splice inh	Mtb betalactam	Arbovirus inh	Mtb H37Rv	others
CC(/C=C/c1ccccc1F)=N\NC(=O)c1ccccc1	·	0.8	93	-2	?
Cc1ccc(S(=O)(=O)N2CCOCC2)cc1C(=O)N1c2ccccc2Sc2ccccc21	-25	6.6	0	0	5%
O=C(Nc1sc2c(c1C(=O)NCC(O)CO)CCCC2)c1ccccc1 (stereo not drawn)	·	1.5	-5	·	·
CCOc1cc2c(cc1OCC)-n1cccc1C(c1cccc(F)c1F)NC2 (stereo not drawn)	·	2.9	2	·	·
O=C1c2ccccc2C(=O)N1CC(O)CNc1ccc(Br)cc1 (stereo not drawn)	-19	-8.9	3	3	3%
CCC(C)(C)NC(=O)C1CCCN(S(=O)(=O)c2ccc3c(c2)CC(C)N3C(=O)C2CC2)C1 (stereo not drawn)	·	-2.7	3	·	·
COC(=O)c1nn(-c2ccc(OC)cc2)c(=O)c2c(N)sc(C)c12	-15	-1.9	-7	1	2%
CC(C)(C)C1CCc2c(C(=O)NNC(=O)CCCC(=O)O)csc2C1 (stereo not drawn)	-24	0.5	5	4	-9%
COc1ccc(/C=N/NC(=O)c2cc(-c3ccccc3)nc3ccccc23)c(C(=O)O)c1OC	·	2.9	2	·	·
O=C(CCc1nc(-c2ccccc2F)no1)NCCN1CCc2ccccc2C1	-28	-2.1	-10	0	4%
NC(=O)CC[C@@H]1NC(=O)[C@H](CO)NC(=O)c2cc([N+](=O)[O-])cc(I)c2NCCCC[C@@H](C(N)=O)NC(=O)[C@H](Cc2ccc(O)cc2)NC1=O	-16	5.1	-3	1	-4%
O=C(CN1C(=O)COc2ccccc21)Nc1ccccc1F	·	0.6	-1	·	·
Cc1cc(NC(=O)CSc2nc3ccccc3c(=O)n2Cc2ccccc2)no1	4	-2.6	2	-4	-5%
COc1ccc(NC(=O)Cc2nnc(SCC(=O)NC3CCCCC3)n2C)cc1	·	-0.8	-6	·	·
CCNc1nc(OCCNS(=O)(=O)c2cc(C)ccc2C)nc(N(C)C)n1	-24	-0.9	-6	4	-7%	Arbovirus inh repeat=5
CCOC(=O)N1CCN(C(=S)NC(C)(C)C)CC1	29	0.1	-8	2	-9%
CC1(NC(=S)Nc2ccc3ccccc3c2)CCS(=O)(=O)C1 (stereo not drawn)	·	-1.4	-9	·	?
C=CCOc1ccc(/C=N\NC(N)=S)cc1	·	-0.5	95	-9	49%
Cc1ccc(-c2noc(-c3ccccc3C(=O)N3CCN(C)CC3)n2)cc1	-8	-4.3	-9	-5	2%
CCc1ccc2c(CN3CCOCC3)cc(=O)oc2c1	·	-2.6	-2	·	·
O=c1c2ccccc2ncn1CCCOc1ccccc1[N+](=O)[O-]	-41	-7.8	-6	0	-18%
CCOC(=O)c1ccc(NC(=O)c2cccc(S(=O)(=O)N3CCOCC3)c2)cc1	-19	-5.0	3	5	-8%	Arbovirus inh repeat=-1
Cc1ccc(S(=O)(=O)NC2CC2)s1	·	-2.1	?	·	·
O=C(CSc1ccc2nnc(-c3cccnc3)n2n1)c1ccccc1	·	-0.9	7	15	3%
O=C(OCC(=O)N1CCN(c2ccccc2)CC1)c1cccs1	·	2.4	0	·	·

Structures above with an aryl methoxy group, in the order listed:
SMILES	YopH PTP inh	RecA splice inh	Mtb betalactam	Arbovirus inh	Mtb H37Rv	others
COC(=O)c1nn(-c2ccc(OC)cc2)c(=O)c2c(N)sc(C)c12	-15	-1.9	-7	1	2%
COc1ccc(/C=N/NC(=O)c2cc(-c3ccccc3)nc3ccccc23)c(C(=O)O)c1OC	·	2.9	2	·	·
COc1ccc(NC(=O)Cc2nnc(SCC(=O)NC3CCCCC3)n2C)cc1	·	-0.8	-6	·	·

Back to the main list, repeating the four entries before the break.
SMILES	YopH PTP inh	RecA splice inh	Mtb betalactam	Arbovirus inh	Mtb H37Rv	others
CCOC(=O)c1ccc(NC(=O)c2cccc(S(=O)(=O)N3CCOCC3)c2)cc1	-19	-5.0	3	5	-8%	Arbovirus inh repeat=-1
Cc1ccc(S(=O)(=O)NC2CC2)s1	·	-2.1	?	·	·
O=C(CSc1ccc2nnc(-c3cccnc3)n2n1)c1ccccc1	·	-0.9	7	15	3%
O=C(OCC(=O)N1CCN(c2ccccc2)CC1)c1cccs1	·	2.4	0	·	·
CCOC(=O)[C@@H]1[C@H]2COc3ccc(Br)cc3[C@@H]2N2C(=O)N(c3ccc(OC)cc3)C(=O)[C@]12C	·	0.0	-3	·	·
CC1(C)CC(CC(=O)Nc2ccccn2)C(=O)O1 (stereo not drawn)	-25	3.5	-5	2	-5%
CSc1nc2c(c(=O)[nH]c(=O)n2C)n1Cc1ccc(Cl)cc1	·	-1.1	-2	·	·
O=C(CSc1nc(-c2ccco2)cc(C(F)(F)F)n1)Nc1ccccc1C(F)(F)F	-21	0.2	0	-5	-2%
O=C(CSc1cccc[n+]1[O-])Nc1ccc2c(c1)OCO2	·	-3.0	-13	-6	3%
O=C(Nc1ncccn1)c1cccs1	-28	2.5	-11	4	-3%
C/C(CCc1ccccc1)=N\NC(=O)c1ccc(CN2CCOCC2)cc1	·	5.4	-6	-3	-9%
Cc1cc(C)cc(N(CC(=O)NCc2ccco2)C(=O)c2snc(C(N)=O)c2N)c1	-24	-0.9	4	2	-8%
COc1c(Cl)cc(-c2noc(C)c2C(=O)NCCc2ccc(C)cc2)cc1Cl	-3	·	4	-3	5%
CCOc1ccc2c(c1)c1nnc(SCC3CCCO3)nc1n2C (stereo not drawn)	-24	2.7	-7	-14	-6%
Cc1ccccc1NS(=O)(=O)c1cc2c(cc1C)NC(=O)CO2	·	2.0	7	·	·
COCCNC(=S)N(CCO)Cc1cc2cc3c(cc2[nH]c1=O)OCO3	·	0.4	-4	·	·
S=C(c1ccc(-c2ccccc2)cc1)N1CCOCC1	·	0.7	3	·	·
Cn1cccc1Cc1nnc(SCC(=O)NCc2ccccc2Cl)n1-c1ccc(F)cc1	-38	4.9	3	-1	7%	Arbovirus inh repeat=-4
CSc1cccc(NC(C)C(=O)NCc2ccccc2)c1 (stereo not drawn)	·	0.4	-8	16	2%
Cn1ccnc1SCC(=O)Nc1cc(F)ccc1F	·	-1.5	-5	·	·
Cc1cccc(NC(=O)CN2C(=O)COc3ccc(Cl)cc32)c1	·	5.3	4	6	4%
COCCN(C(=O)CSc1nnc2cc(C)c3ccccc3n12)c1c(N)n(Cc2ccccc2)c(=O)[nH]c1=O	-15	0.9	3	-2	0%
O=C(c1ccccc1)N1N=C(c2ccccc2)CC1c1cccs1 (stereo not drawn)	·	14	11	·	·
CC(=O)N1CC(C)Sc2ccc(S(=O)(=O)NC3CCCCC3C)cc21 (stereo not drawn)	·	3.3	1	·	·
O=C(CSc1cccc2cccnc12)N1CCCC1	-40	-3.1	32	-37	90%
Cc1ccc(N2CC(C(=O)Nc3ccc(S(=O)(=O)Nc4ncccn4)cc3)CC2=O)cc1C (stereo not drawn)	·	0.9	2	·	·
CN(C)CCN(Cc1ccc(Cl)cc1)c1ccccn1	-31	-0.2	0	-4	-5%
Cc1c(N(C(=O)c2ccccn2)C2(C(=O)NC3CCCC3)CCCCC2)c(=O)n(-c2ccccc2)n1C	·	-1.9	2	0	-2%
CC(OC(=O)CC1CC2CCC1C2)C(=O)Nc1cccc(S(=O)(=O)N2CCOCC2)c1 (stereo not drawn)	·	0.0	-5	·	·
SMILES	YopH PTP inh	RecA splice inh	Mtb betalactam	Arbovirus inh	Mtb H37Rv	others
Cc1ccc(OCC(=O)Nc2c3c(nn2C(C)(C)C)CS(=O)(=O)C3)cc1	·	0.6	5	·	·
COc1ccc(NC(=O)c2ccc3snnc3c2)cc1	-14	1.5	-2	-8	1%
CCc1ccc(NC(=O)CCC(=O)c2ccccc2)cc1	·	0.1	42	·	·
Cc1ccc(Cn2c(S(=O)(=O)O)nc3ccccc32)cc1	-7	-1.5	-8	10	2%
O=C(N/N=C/c1cccnc1)c1ccco1	·	-0.9	-15	·	-7%
NC(=O)c1nsc(C(=O)N(Cc2ccco2)C(C(=O)NCc2ccccc2)c2ccc(O)cc2)c1N (stereo not drawn)	·	-4.9	2	·	·
CCOC(=O)C1CCN(S(=O)(=O)c2c(C)n(C)c(=O)n(C)c2=O)CC1	-30	-2.9	1	-1	8%
CCOC(=O)c1c(C)[nH]c(N=Nc2cccc(OC)c2)c1C	·	7.7	93	6	45%
COc1ccc(NC(=O)Nc2ccc(Br)c(C)c2)cc1	·	-0.5	-1	8	2%
O=C(c1ccccc1)C(O)(Cc1ccccc1)c1ccccc1 (stereo not drawn)	·	11	-2	·	·
C#Cc1cccc(C(=O)NC2CCCN(C3Cc4ccccc4C3)C2)c1 (stereo not drawn)	·	4.2	7	·	·
COc1ccc(C2=NOC(C(=O)NCc3ccc(F)cc3)C2)cc1 (stereo not drawn)	-47	1.7	-1	-12	·
O=C(O)c1c(Cl)c(Cl)c(Cl)c(Cl)c1C(=O)N1CCCC1	-26	·	-10	2	-11%
CCC(=O)c1ccccc1OCCCN1CCC(Cc2ccccc2)CC1	·	1.7	6	·	·
COc1cc(OC)cc(C(=O)Nc2ccc(CN3CCCCC3)cc2)c1	·	-0.9	4	-6	1%
COc1ccc(NS(=O)(=O)c2cc(C(=O)OC(C)C(=O)N3CCOCC3)ccc2Cl)cc1 (stereo not drawn)	·	-0.4	-9	·	·
CCOCCCNC(=S)N1CCCN(c2nc3cc(C)ccc3cc2C#N)CC1	·	-21	9	13	3%
Cc1nn(CC(=O)Nc2ccc(N(C)C)cc2)c(C)c1[N+](=O)[O-]	-19	-2.5	3	4	-1%
Cc1cc(C)c2cc(CN(Cc3cccnc3)C(=O)c3ccc(F)cc3)c(Cl)nc2c1	-12	0.8	1	91*	3%
N#CC(c1ccc(Cl)cc1)c1cccc(Cl)n1 (stereo not drawn)	·	1.6	-2	-16	3%
CC(=O)NC12CC3CC(C1)CC(C(=O)OCC(=O)Nc1ncc(Cl)cc1Cl)(C3)C2	-42	9.7	2	1	2%
CC(=O)c1cccc(NS(=O)(=O)c2ccc(C(=O)Nc3ccccc3)cc2)c1	·	3.7	8	·	·
COc1ccc(S(=O)(=O)NCc2ccco2)cc1C(=O)N1CCCCC1	·	1.8	-4	·	·
COc1ccccc1CNC(=O)C1CCC(=O)N(CCCN2CCCC2=O)C1 (stereo not drawn)	·	1.6	3	·	·

Already shown: an excerpt of the list.
SMILES	YopH PTP inh	RecA splice inh	Mtb betalactam	Arbovirus inh	Mtb H37Rv	others
Cc1ccc(OCC(=O)Nc2c3c(nn2C(C)(C)C)CS(=O)(=O)C3)cc1	·	0.6	5	·	·
COc1ccc(NC(=O)c2ccc3snnc3c2)cc1	-14	1.5	-2	-8	1%
CCc1ccc(NC(=O)CCC(=O)c2ccccc2)cc1	·	0.1	42	·	·
Cc1ccc(Cn2c(S(=O)(=O)O)nc3ccccc32)cc1	-7	-1.5	-8	10	2%
O=C(N/N=C/c1cccnc1)c1ccco1	·	-0.9	-15	·	-7%

By substructure: the entries above containing a nitro group on carbon
SMILES	YopH PTP inh	RecA splice inh	Mtb betalactam	Arbovirus inh	Mtb H37Rv	others
NC(=O)CC[C@@H]1NC(=O)[C@H](CO)NC(=O)c2cc([N+](=O)[O-])cc(I)c2NCCCC[C@@H](C(N)=O)NC(=O)[C@H](Cc2ccc(O)cc2)NC1=O	-16	5.1	-3	1	-4%
O=c1c2ccccc2ncn1CCCOc1ccccc1[N+](=O)[O-]	-41	-7.8	-6	0	-18%
Cc1nn(CC(=O)Nc2ccc(N(C)C)cc2)c(C)c1[N+](=O)[O-]	-19	-2.5	3	4	-1%
